Sfp PPTase inh: Sfp phosphopantetheinyl transferase inhibition; Biochemical Sfp PPTase activity, qHTS; Potency, µM, for the others: max response, negative = inhibition, most hits filed as inhibitors; actives 3.5% (n = 310,000); Q9F4F7; active = well fitted inhibition curve with a large enough effect; inconclusive = small, poorly fitted or top-dose-only effect, or another doubt; inactive = no such curve, though single readings can be large or run the other way;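 note: the enzyme is Sfp with the accession as filed and its product quenches rhodamine fluorescence; potency is the fitted concentration of half-maximal effect; 0% = enzyme reaction without inhibitor and -100% = no enzyme wells; top concentration of the series not given in the record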
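Compounds were incubated with enzyme (final 15 nM) for 15 min at room temperature before substrate addition started the reaction. Fluorescence at 525 nm excitation, 598 nm emission was recorded immediately and after 30 minutes.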
D2 PAM: human D2 receptor positive allosteric modulation | actives 0.23% (n = 360,000) | DiscoveRx D2 beta-arrestin cells, luminescence, 90 min; 100% = 57 uM dopamine signal | P14416 | AID 624464 | potentiation, % (test concentration not listed); active = potentiation of 50% or more; inconclusive = 30% to 50%; inactive = 30% or less;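 note: compound concentration not given in the record; tested on top of an EC20 dose of dopamine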
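PathHunter D2 cells, attached overnight at 37 deg C, received compound in DMSO plus dopamine at EC20 (50 nM final) for 90 min at 37 deg C. Beta-arrestin recruitment was read as luminescence after 1 h with detection reagent at ambient temperature.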
gsp ag: activates gsp, the McCune-Albright syndrome mutation; gsp mutant cells, cAMP HTRF, 30 min; control for the full effect not named in the record; Potency, µM (doses to about 76.9 µM), for the others: top-dose activation (cAMP increase), usual class: activators; actives 0.13% (n = 340,000); active = well fitted activation curve with a large enough effect; inconclusive = small, poorly fitted or top-dose-only effect, or another doubt; inactive = no such curve, though single readings can be large or run the other way; cell line not stated here;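 note: phosphodiesterase inhibitor Ro 20-1724 added with compounds to block cAMP breakdown; potency is the fitted concentration of half-maximal effect; nearly all actives have a fitted effect of over 60% in size; about a fifth of the inactives were tested at one dose only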
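Cells in DMEM/10% FBS with G418 were pretreated with compounds in DMSO plus […] (300 uM stock) for 30 min at 37C. cAMP was measured by HTRF (cAMP-d2 plus anti-cAMP antibody-K) after 30 min at room temperature.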
TRPV1 PAM: human TRPV1 potentiation. Q8NER1. TRPV1-expressing cells, Fluo-8 calcium influx, capsaicin EC20 potentiation; host cell line not named in the record; control for the full effect not named in the record. potentiation, % at 8.33 µM. actives 0.02% (n = 320,000). AID 540277; active means potentiation above 80%; inconclusive means 30% to 80%; inactive means below 30%; note: 0% is about no effect
Target sequence (Q8NER1 whole entry, looked up): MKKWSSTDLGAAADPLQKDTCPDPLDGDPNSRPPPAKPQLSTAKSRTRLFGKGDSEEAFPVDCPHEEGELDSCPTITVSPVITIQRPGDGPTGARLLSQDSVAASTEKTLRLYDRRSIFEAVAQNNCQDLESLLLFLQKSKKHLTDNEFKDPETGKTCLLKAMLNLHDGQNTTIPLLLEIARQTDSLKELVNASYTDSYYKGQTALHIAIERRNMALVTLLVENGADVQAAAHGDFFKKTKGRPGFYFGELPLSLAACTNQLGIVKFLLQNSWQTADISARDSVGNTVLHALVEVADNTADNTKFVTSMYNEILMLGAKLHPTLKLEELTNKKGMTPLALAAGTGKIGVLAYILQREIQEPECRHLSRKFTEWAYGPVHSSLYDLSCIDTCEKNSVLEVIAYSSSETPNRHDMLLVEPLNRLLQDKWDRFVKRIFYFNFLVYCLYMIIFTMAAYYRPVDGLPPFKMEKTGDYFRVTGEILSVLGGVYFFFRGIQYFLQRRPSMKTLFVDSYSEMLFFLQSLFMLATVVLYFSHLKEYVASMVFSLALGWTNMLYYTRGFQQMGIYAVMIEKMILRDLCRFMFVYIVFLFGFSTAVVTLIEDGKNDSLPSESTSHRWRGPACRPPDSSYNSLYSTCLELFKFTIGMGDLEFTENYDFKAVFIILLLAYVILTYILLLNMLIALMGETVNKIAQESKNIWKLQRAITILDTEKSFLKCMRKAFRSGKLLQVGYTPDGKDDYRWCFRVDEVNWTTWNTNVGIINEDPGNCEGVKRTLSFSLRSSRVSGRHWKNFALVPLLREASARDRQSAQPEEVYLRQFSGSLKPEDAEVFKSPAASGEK
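Fluo-8 calcium influx in TRPV1-expressing cells, kinetic read (ex 480/em 520 nm). Compound added and read 3 min for agonist activity, followed by capsaicin at EC20 final and 2 min further read for enhancement.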
gsp antagonist: antagonizes gsp, the McCune-Albright syndrome mutation. Potency, µM (titrated, usually from 76.9 µM), for inactives: at the top dose activity change, negative = inhibition, hits mostly inhibitors. actives 0.4% (n = 340,000). gsp-mutant cells, cAMP HTRF, 30 min; control for the full effect not named in the record; active = falling curve of any shape with a large fitted effect; inconclusive = falling curve, mostly with a smaller effect; inactive = flat or rising curve; cell line not stated here;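 note: intracellular cAMP measured with PDE inhibitor Ro 20-1724 present during compound exposure; potency is the fitted concentration of half-maximal effect; % is set by controls: 0 for no effect and ±100 for the full control effect; nearly all actives have a fitted effect of over 65% in size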
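Measurement of cellular cAMP by homogeneous time-resolved fluorescence following a 30 min compound exposure at 37C. The PDE inhibitor […] was present throughout; the assay buffer was DPBS with 0.05% BSA and 0.005% Tween 20.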
ClpP mod: qHTS Assay for Activators of ClpP. ATP-dependent Clp protease proteolytic subunit (Bacillus subtilis (strain 168)), P80244. purified B. subtilis ClpP, FRET peptide cleavage, 20 min. Potency, µM (top dose mostly 57.5 µM), for inactives: at the highest dose activity change, negative = active. actives 1.9% (n = 340,000); active = well fitted falling curve with a large enough effect; inconclusive = small, poorly fitted or top-dose-only effect; inactive = no such curve, though single readings can be large or run the other way; note: potency is the fitted concentration of half-maximal effect; the source files actives as falling curves though it sought activators and does not explain the sign; nearly all actives have a fitted effect of over 65% in size; many hits overshoot -100%
Target sequence (P80244 whole entry, looked up): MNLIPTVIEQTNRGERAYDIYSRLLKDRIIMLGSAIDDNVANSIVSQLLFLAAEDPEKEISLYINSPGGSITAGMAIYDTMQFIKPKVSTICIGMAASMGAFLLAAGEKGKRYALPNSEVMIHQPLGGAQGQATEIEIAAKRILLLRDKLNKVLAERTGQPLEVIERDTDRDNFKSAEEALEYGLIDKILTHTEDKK
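ClpP 10 microg/mL final, pH 8 Tris/KCl buffer with BSA, glycerol, Tween-20; compound pinned in; FRET-FV substrate; RT 20 min; Ex320/Em430; ΔFRET vs ADEP 5.8 microM, DMSO, no enzyme.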
Menin MLL FP FL: displaces fluorescein MLL peptide from human menin | Fluorescence polarization, fluorescein-MLL peptide displacement from menin | FP activity change, % at 61.4 µM | 290,000 tested, under 10 active; inconclusive = falling polarisation curve, or a change in total fluorescence; inactive = total fluorescence flat and polarisation flat or rising; no compound was filed as active; the % refers to the polarisation; negative = inhibition;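 note: % of control where 0% means no effect; inhibitors lower the polarisation; unlabelled MLL peptide was the positive control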
An asterisk follows results filed as active; ? = inconclusive; . = no result given; & = joins results of further samples; [ ] = remark or other dose.

No.	compound	gsp antagonist	D2 PAM	TRPV1 PAM	ClpP mod	gsp ag	Menin MLL FP FL	Sfp PPTase inh
1	Cc1ccc(S(=O)(=O)Nc2cccc(-n3cnnn3)c2)cc1	6%	5	-6	1.9%	-5%	.	13%
2	CCOC(=O)C(=CNCC(=O)O)C(=O)OCC	-7%	9	-10	0.5%	-26%	1.2	-8%
3	CCOC(=O)c1ccc2ncc(C(=O)OCC)c(NCc3ccco3)c2c1	-11%	?	-12	69%	-1%	1.1	-28%
4	O=C(NCc1ccccc1)c1ccc(Cn2cc(C(F)(F)F)ccc2=O)cc1	-1%	-2	15	-0.9%	1%	-1.3	29%
5	C[C@H]1C[C@@H]2[C@H]([C@@H](O)C[C@@]3(C)[C@H]2CC[C@]3(O)C(=O)CO)[C@@]2(C)C=CC(=O)C=C12	-7%	12	2	-4.1%	.	2.7	19%
6	CC(NC(=S)NCCc1ccccc1)C(c1cccs1)N1CCN(C)CC1 (stereo unspecified)	6%	-14	-24	1.7%	?	1.3	-15%
7	Cc1ccc(NC(=S)N2CCCCCC2)c(C)c1	-6%	4	1	0.8%	4%	-1.7	3%
8	O=C(COc1ccccc1)N1CCN=C1SCc1ccc(F)cc1	-11%	2	-8	.	-11%[15.4 µM]	-1.4	-1%
9	COc1cc2c3c(c1OC)C1(C=CC(=O)C=C1)CC3N(C(=O)CCC(=O)O)CC2 (stereo unspecified)	11%	-10	4	0.3%	-18%	2.5	12%
10	Cn1c(=O)c2c(nc(N3CCc4ccccc4C3)n2Cc2ccccc2F)n(C)c1=O	-17%	2	-3	-2.5%	7%	-0.1	-14%
11	COC(=O)C1=C(COc2ccccc2)NC(=O)NC1c1ccc(Br)cc1 (stereo unspecified)	-4%	-9	-12	2.3%	9%	7.4	16%
12	Nc1ccc(N2CCCC2)c(S(=O)(=O)Nc2cccc(C(F)(F)F)c2)c1	-4%	-9	.	-2.0%	-1%[15.4 µM]	.	.
13	Cc1c(OC(C)C(=O)NCCN2CCOCC2)ccc2c3c(c(=O)oc12)CCCC3 (stereo unspecified)	-5%	-8	6	3.7%	27%	.	18%
14	CN(C)CCCNc1oc(-c2ccccc2)nc1C#N	11%	-14	-17	-0.9%	15%	3.3	12%
15	CCCS(=O)(=O)N1CCc2cc(OC)c(OC)cc2C1	-22%	9	.	-2.4%	13%	1.4	0%
16	Cc1cc2ncc(C(=O)Nc3ccsc3C(=O)O)c(C)n2n1	1%	5	20	.	14%	9.8	-2%
17	CCOc1ccc(C(C(=O)NCC2CCCO2)N(C(=O)c2snc(C(N)=O)c2N)c2ccc3c(c2)OCCO3)cc1 (stereo unspecified)	-25%	-5	5	.	-13%	1.0	11%
18	COc1ccccc1C(=O)Nc1ccc(S(=O)(=O)Nc2cnc3ccccc3n2)cc1	-25%	-4	-3	.	1%[15.4 µM]	4.3	10%
19	CC(C)Cc1nnc(NC(=O)c2ccc(-n3cncn3)c([N+](=O)[O-])c2)s1	.	-7	.	0.4%	-16%	.	.
20	CC(C)(C)c1cc(C(=O)N2CCc3ccccc32)ccn1	-17%	1	-10	-0.6%	5%	-0.1	15%
21	O=C(Cc1ccccc1)N/N=C/c1ccc(S(=O)(=O)O)o1	-2%	-5	?	-1.4%	-9%	5.3	2%
22	CCc1ccc(C(=O)NC(=S)Nc2ccc3c(c2)OCCO3)cc1	-4%	-9	2	-1.0%	19%	5.9	?
23	COc1ccc(NC(=O)c2cccnc2)cc1OCC(C)C	6%	3	-3	.	7%	3.6	18%
24	Cc1cccc2nc(CSc3ccccc3C(=O)O)cn12	8%	-3	-10	.	19%	-2.4	-10%
25	O=C(NCC(c1ccco1)N1CCCC1)c1cn(-c2ccccc2)nc1-c1ccc(F)cc1 (stereo unspecified)	-3%	-49	-7	0.7%	-51%[inhibitor]	.	.
26	O=C(NC1CCCC1)c1ccc2nc(-c3ccco3)c(-c3ccco3)nc2c1	-5%	26	5	-5.7%	?	-0.5	6.3µM*
27	CCC1CCCCN1C(=O)c1sc2nc(C)nc(N(CC)CC)c2c1C (stereo unspecified)	?	-3	-11	-0.2%	17%	0.8	16%
28	O=C1c2ccccc2C(=O)N1CCCCCc1nc(-c2ccccc2)no1	-12%	-3	.	-5.9%	22%	-2.2	-5%
29	C=C1N(CCCCCC(=O)O)C(=O)OC12CCCCC2	13%	3	-3	-1.1%	?	3.1	23%
30	COc1ccc(Cc2noc(CN(C)CC3(N4CCOCC4)CCCCC3)n2)cc1OC	-10%	-5	-21	-1.2%	-11%	44[activator]	21%
31	CCCc1cc2c(cc1N(C)S(=O)(=O)c1ccccc1)OCO2	-19%	-5	.	.	-49%[inhibitor]	.	.
32	Cc1ccc(S(=O)(=O)CCC(=O)OCC(=O)N2CCN(S(=O)(=O)c3ccccc3)CC2)cc1	-2%	-12	1	0.8%	?	.	.

Entries listed above marked active in Sfp PPTase inh.
| item | SMILES | gsp antagonist | D2 PAM | gsp ag | Menin MLL FP FL | Sfp PPTase inh |
| --- | --- | --- | --- | --- | --- | --- |
| 26 | O=C(NC1CCCC1)c1ccc2nc(-c3ccco3)c(-c3ccco3)nc2c1 | -5% | 26 | ? | -0.5 | 6.3µM* |

The results go on:
No.	compound	gsp antagonist	D2 PAM	TRPV1 PAM	ClpP mod	gsp ag	Menin MLL FP FL	Sfp PPTase inh
33	COc1ccc(C(=O)NCCc2cc3c(OC)ccc(OC)c3[nH]c2=O)cc1OC	-1%	-5	13	.	-8%	0.2	7%
34	Cc1cc(C)n2nc3ccccc3c2n1	8%	8	1	-4.7%	-40%[inhibitor]	-2.1	-3%
35	COc1c(C)cc(S(=O)(=O)NCc2ccccn2)c(C)c1C	4%	-1	-6	1.4%	-1%[15.4 µM]	-1.8	4%
36	COc1cccc(OCc2cc(C(=O)NCc3ccccn3)no2)c1	-5%	-2	5	.	-11%	0.3	8%
37	COc1ccc(NC(=O)C[C@H]2C(=O)N(CCc3ccccc3)C[C@@H]2C)cc1	.	-4	.	-1.1%	-42%	.	.
38	Cc1ccc(O)c(-c2cc(-c3ccc(F)cc3)no2)c1	1%	2	-12	-1.2%	-5%	-0.8	30%[activator]
39	Cc1ccc(S(=O)(=O)NC(CC(C)C)C(=O)N2CCCC2)cc1 (stereo unspecified)	7%	5	-8	-1.1%	19%[15.4 µM]	.	7%
40	CCCCC(=O)Nc1ccc(NC(=O)c2ccccc2[N+](=O)[O-])cc1OC	6%	-19	2	-2.3%	-23%	11	2%
41	O=C(NCCc1ccccn1)c1cc(-c2cccc3ccccc23)nc2ccccc12	-17%	6	-3	-27%	-74%[inhibitor]	3.9	3%
42	Cc1ccc(N=c2c([N+](=O)[O-])nn(-c3ccccc3)n2O)c(C)c1	3%	55*	-1	-0.6%	-38%	-0.9	?
43	CC(=O)CSc1nc(-c2cccs2)c(C#N)c(=O)[nH]1	-2%	-3	21	.	?	?	?
44	COc1ccc(C(=O)N/N=C2\SCC(=O)N2Cc2ccc3c(c2)OCO3)c(OC)c1	-1%	-4	4	-9.6%	0%	5.4	5%
45	CN1CCN(c2nc(N3CCN(c4ccccc4)CC3)ncc2F)CC1	4%	-39	-6	-13%	-64%[inhibitor]	1.8	-5%
46	CCOC(=O)c1c(NC(=O)c2ccc(N3C(=O)[C@@H]4[C@H](C3=O)[C@H]3C=C[C@@H]4C3)cc2)sc2c1CCCC2	-1%	-5	9	?	-23%	5.9	-8%
47	CCN1C/C(=C/c2ccc(OC)c(O)c2)C(=O)/C(=C/c2ccc(OC)c(O)c2)C1	-2%	13	-12	-0.4%	-3%	0.0	-6%
48	O=C(NC1CCS(=O)(=O)C1)/C(=C/c1ccco1)NC(=O)c1ccccc1 (stereo unspecified)	0%	-4	-4	.	?	1.5	-13%
49	COC(=O)C1NC(=O)N2C(C(=O)OC)C(C)(C)S[C@H]12 (stereo partly specified)	7%	5	.	0.2%&2.1%	?	.	.
50	O=C(CSc1nnc(C2CC2)n1Cc1ccccc1)c1ccc(S(=O)(=O)N2CCOCC2)cc1	-22%	6	13	6.6%	-8%	1.0	13µM*
51	CCCOc1ccc(-c2nnc(-c3ccco3)o2)cc1	-4%	-22	?	40µM*	25%	6.1	-29%
52	Nc1c(C(=O)NCCc2ccccc2)nnn1Cc1ccccc1	10%	-8	-6	-2.5%	-11%	0.7	5%
53	N/C(Cc1cccc2ccccc12)=N\OC(=O)Cc1cccs1	-2%	-16	7	0.4%	0%	-20	13%
54	O=C(O)c1ccccc1NS(=O)(=O)c1ccc(NN=Cc2ccc(F)cc2)c([N+](=O)[O-])c1	-2%	0	.	.	29%	.	.
55	O=C(NC1CCCCC1)C(c1ccc(F)cc1)N(Cc1ccco1)C(=O)CN1C(=O)c2ccccc2S1(=O)=O (stereo unspecified)	-9%	-10	-15	1.2%	-39%	1.6	18%
56	CC(=O)C(Sc1nccc(-c2cccs2)n1)C(C)=O	-9%	-7	4	.	1%[15.4 µM]	0.0	?
57	CCC1=Nc2ccccc2-c2nnc(SC)nc2O1	2%	-13	8	-0.8%	?	-0.7	13%
58	Cc1ccc(NC(=O)C(C)Sc2nnc(-c3cccnc3)n2-c2ccccc2)cc1 (stereo unspecified)	-3%	-14	-6	0.7%	-28%	-0.7	5%
59	O=C(Nc1ccnn1C1CCN(C2CCCCC2)CC1)c1ccccc1	7%	-52	3	-2.7%	-27%	.	7%
60	CC1CN(C(=O)CCc2cc(C(C)(C)C)c(O)c(C(C)(C)C)c2)CC(C)O1 (stereo unspecified)	-11%	-9	-7	0.3%	13%	3.0	6%
